Source: PubChem (NMMLSC)
Autofluor counter: compound fluorescence in toxin protease inhibitor counterscreen | compound autofluorescence counterscreen, microsphere flow cytometry; hits give high values | fluorescence intensity (test concentration not listed) | hit rate 3.1% among 360,000;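 active = at least 3 SD above the mean of all compounds, about 16000 in these data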;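 note: 100 nL of 1 mM stock went into each well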
Starred values were filed as active, the others as inactive. A portion of the library; count on the stated rates, not on these rows.

SMILES	Autofluor counter
COc1ccc(NC(=O)Nc2nc(C(N)CC(C)C)cs2)cc1 (stereo unspecified)	3746
Cc1ccc2c(c1)nc1c3ccccc3nc(-c3ccccc3N)n21	2872
O=C1C=C2c3ccccc3CC(C(=O)O)C2CC1 (stereo unspecified)	4299
COc1ccc([C@H]2C[C@H](O)[C@@H](n3cc(COC(=O)c4ccccc4)nn3)CN2CC2CCCCC2)cc1	3665
CCOc1ccccc1NC(=O)COC(=O)C1COc2ccccc2O1 (stereo unspecified)	3824
C[C@@H]1CN([C@H](C)CO)C(=O)CCCn2cc(nn2)CO[C@H]1CN(C)S(=O)(=O)c1cccc(F)c1	3869
CCN1C(=O)CC(=O)N(CC)C1=S	3557
CCC(C(=O)N1CCN(Cc2ccc3c(c2)OCO3)CC1)n1nnc2ccccc2c1=O (stereo unspecified)	3996
CCc1nc2c(OCC(=O)c3ccc(F)cc3)cccn2c1N(C)C(=O)C(C)C	3987
OCCCNc1ncnc2c1ncn2[C@H]1CN(Cc2ccc(Cl)cc2)C[C@@H](CO)O1	2984
COc1cc2c(cc1OC)C(=NO)CCCC2	4005
CC(=O)Nc1ccc(-c2ccnc3c2CC(C(=O)Nc2cccc(Oc4ccccc4)c2)O3)cc1 (stereo unspecified)	4334
CC(C)(C)S(=O)N1Cc2cc(C(=O)N3CCOCC3)nc(-c3cccc(Br)c3)c2[C@H]1CCO (stereo partly specified)	6450
CSc1ccc(CNC(=O)C2(C)CCCN2CC(C)C)cc1 (stereo unspecified)	5149
Cc1nc2cc(OC3(C)CCN(Cc4ccc(OC(F)(F)F)cc4)C3)ccc2s1 (stereo unspecified)	4597
NCc1csc(Nc2ncccn2)n1	3510
CC1(Cc2ccc(Cl)cc2)C(=O)Nc2c(Cl)ccc(Cl)c21 (stereo unspecified)	3769
COCOCCn1cc(CN2CCS(=O)(=O)N(Cc3ccc(-c4ccc(Cl)cc4)cc3)C(C)C2=O)nn1 (stereo unspecified)	2891
O=S(=O)(c1ccccc1)N(CC(F)(F)F)c1ccc(C(O)(C(F)(F)F)C(F)(F)F)cc1	3557
Cc1noc(C)c1-c1ccc(C(=O)NCCC(F)(F)F)c2occc12	3726
CC(C)Cc1ccc(-c2cc3nc(NCCCn4ccnc4)ccn3n2)cc1	3410
Cc1onc(-c2ccccc2)c1C(=O)N1CCC(C)(C(=O)O)C1 (stereo unspecified)	3784
COc1ccccc1Cc1c(-c2ccc(F)cc2)nc2c(C)cc(Br)cn12	7706
O=C(NCc1cccnc1)c1csc([C@@H]2C[C@H](O)[C@@H](CO)O2)n1	3911
CS(=O)(=O)N1CCCCC1c1cc(C(=O)Nc2ccccc2)no1 (stereo unspecified)	3756

Next part
SMILES	Autofluor counter
OC(c1cccc(Cl)c1)c1ncc(-c2ccc(Oc3ccccc3)cc2)[nH]1 (stereo unspecified)	3988
Cc1ccc(OC(=O)N(C)C[C@@H]2OCc3cnnn3CCCC(=O)N([C@H](C)CO)C[C@H]2C)cc1	3666
Cc1cn([C@H]2C[C@H](O)[C@@H](/C=C/C(=O)NCCC(c3ccccc3)c3ccccc3)O2)c(=O)[nH]c1=O	4461
NC(COCc1ccccc1)c1csc(Nc2nccc(C(F)(F)F)n2)n1 (stereo unspecified)	3677
O=C(CN(CCO)Cc1ccccc1)N1CCN(S(=O)(=O)c2ccccc2)CC1	4249
CC(C)c1ccc(CN2CCC(n3nccc3NC(=O)C3CCCC3)CC2)cc1	3965
CC1=C(C(=O)N2CCOCC2)CC(CC(=O)NCCN2CCOCC2)C(=O)N1Cc1ccc(C(C)(C)C)cc1 (stereo unspecified)	3793
CC1=C(C(=O)N(C(C)C)C(C)C)CC(CC(=O)NC2CCCC2)C(=O)N1CCC1=CCCCC1 (stereo unspecified)	6351
CNc1cncc(-c2cccc(C(=O)N(C)C)c2)n1	3639
Cn1nc(C2CC2)cc1NC(=O)C1(C)CCN1C(=O)CCc1ccccc1 (stereo unspecified)	3750
COCCNC(=O)C1(C)CCCN(C(=O)c2cccc(Cl)c2)C1 (stereo unspecified)	3691
O=C(CNS(=O)(=O)Cc1ccccc1)NNc1ccccc1	6396
O=C1NC[C@H](CCCCN2CCN(CCc3ccc(O)cc3)C(=O)C2=O)N(CCc2ccc(O)cc2)C1=O	5952
Cn1c(=O)c2c(-c3ccccc3)n(-c3cc(Cl)c([N+](=O)[O-])cc3O)cc2n(C)c1=O	21612*
CCNC(=O)C1CCCN(C(=O)c2ccc3ccccc3c2)CC1 (stereo unspecified)	2928
CC(=O)Nc1ccc(C(=O)N2CCCC(c3cc(C(=O)Nc4ccccc4Cl)no3)C2)cc1 (stereo unspecified)	3582
CC1(C(=O)NS(=O)(=O)Cc2ccccc2C(F)(F)F)CCN1C(=O)c1ccccc1 (stereo unspecified)	2970
Cc1cc(C)c(NC2=NCCS2)cc1C	3843
O=c1[nH]c2ccccc2n1C1CCN(C(c2cccc3ccccc23)c2nnnn2-c2ccc3c(c2)OCCO3)CC1 (stereo unspecified)	5818
CC(=O)Nc1cccc(-c2cnc(NC(C)=O)cn2)c1	2903
CC1C(=O)N(Cc2cn(CCC3OCCO3)nn2)CCS(=O)(=O)N1Cc1ccc(-c2ccc(Cl)c(Cl)c2)cc1 (stereo unspecified)	3623
COc1ccc(S(=O)(=O)N(C)C[C@@H]2Oc3cc(C#CC4CCCCC4)ccc3S(=O)(=O)N([C@@H](C)CO)C[C@@H]2C)cc1	3246
CCCNC(=O)C[C@@H]1C[C@@H]2c3cc(NS(=O)(=O)c4ccc(OC)cc4)ccc3O[C@@H]2[C@@H](CO)O1	3005
Cc1c(-c2ccc(OCCN3CCOCC3)cc2)c(=O)oc2ccc3ccccc3c12	3741
CC(C)(C)n1nnnc1C(C1CC1)N1CCC2(CC1)C(=O)NCN2c1ccccc1 (stereo unspecified)	5317

More compounds
SMILES	Autofluor counter
Cc1cn([C@H]2C[C@H](O)[C@@H](CNC/C=C/c3ccccc3[N+](=O)[O-])O2)c(=O)[nH]c1=O	3797
O=C(C1=C(O)C(=O)N(CCN2CCOCC2)C1c1cccc([N+](=O)[O-])c1)c1cc2ccccc2o1 (stereo unspecified)	3944
O=C(NCc1cccnc1)c1cc(C2CCCCN2C(=O)c2ccccc2)on1 (stereo unspecified)	3670
C[C@@H]1CN([C@@H](C)CO)C(=O)c2cc(NC(=O)C3CCCCC3)ccc2O[C@@H](C)CCCCO[C@@H]1CN(C)Cc1ccncc1	3842
C[C@H]1CN([C@@H](C)CO)C(=O)CCCn2nncc2CO[C@H]1CN(C)S(=O)(=O)c1ccc2ccccc2c1	2864
COc1cc(Cl)ccc1OC1(C)CCN(Cc2ccccc2OC(F)F)C1 (stereo unspecified)	2740
CCOC(=O)C1=C[C@@H](C(C)(C)C)N(S(=O)(=O)c2ccc(C)cc2)[C@H]1c1ccc(C#N)cc1	6282
Cn1ccc2c(-c3ccc4c(c3)OCCO4)cc3c(c21)C1CCC3C1 (stereo unspecified)	3482
CCOC(=O)[C@]12CCC=C1N(Cc1ccc3c(c1)OCO3)C(=O)[C@H](CC(=O)NCc1ccccc1)C2	6120
CC(C)N1CCN(c2ccncc2S(=O)(=O)N2CCN(C)CC2)CC1	4227
CC1CN(S(=O)(=O)c2cccc(C(=O)N(C)C3CCCCC3)c2)CC(C)O1 (stereo unspecified)	3291
COc1ccc(C(c2nnnn2Cc2ccccc2)N2CCC3(CC2)C(=O)NCN3c2ccccc2)cc1 (stereo unspecified)	5549
CC1(C(=O)NCc2cccc3ccccc23)CCN1C(=O)C1(c2ccccc2)CCCC1 (stereo unspecified)	3843
O=C1NC[C@@H](CCCCN2CCN(CCc3ccc(O)cc3)C(=O)C2=O)N(CCc2ccc(O)cc2)C1=O	5910
COc1ncnc2c1ncn2CCCN(CCCc1ccccc1)CCCn1cnc2c(OC)ncnc21	2931
CC(C)n1nnnc1C1c2ccccc2C(=O)N1CCCn1ccnc1 (stereo unspecified)	6150
COc1cccc(NC(=O)C2(C)CCN2C(=O)Cc2ccc(-c3ccccc3)cc2)c1 (stereo unspecified)	3604
CC1(Oc2cnc(Cl)c3ccccc23)CCN(Cc2ccc(-c3ccccn3)cc2)C1 (stereo unspecified)	3910
COC(=O)[C@]12CCCCC=C1N(Cc1ccc(Cl)cc1Cl)C(=O)[C@H](CC(=O)N1CCCCC1)C2	6060
Cc1ccc(-c2nc3c(C)cc(Br)cn3c2Cc2ccsc2)cc1	5701
CNc1ccc(-c2ccccc2CO)cn1	4053
O=C(O)c1ccc(-c2cccc(-c3nn4c(=O)cc(N5CCNCC5)nc4s3)c2)cc1	3810
CCCCn1nnnc1C(c1ccnc2ccccc12)N1CCC2(CC1)C(=O)NCN2c1ccccc1 (stereo unspecified)	5349
CCCCCc1ccc2cc(C#N)ccc2n1	5935
O=C1NC[C@@H](CCCCN2C[C@H](Cc3ccc(O)cc3)N(CC3CCCCC3)C(=O)C2=O)N(CCc2ccccc2)C1=O	5824

Individual results from above:
`O=C1NC[C@@H](CCCCN2C[C@H](Cc3ccc(O)cc3)N(CC3CCCCC3)C(=O)C2=O)N(CCc2ccccc2)C1=O` | Autofluor counter = 5824
`COc1ccc(C(c2nnnn2Cc2ccccc2)N2CCC3(CC2)C(=O)NCN3c2ccccc2)cc1` (stereo unspecified) | Autofluor counter = 5549
`CC1(C(=O)NCc2cccc3ccccc23)CCN1C(=O)C1(c2ccccc2)CCCC1` (stereo unspecified) | Autofluor counter = 3843

Rewritten in CSV form: 2 of the compounds above
mol,Autofluor counter
COc1cc(Cl)ccc1OC1(C)CCN(Cc2ccccc2OC(F)F)C1 (stereo unspecified),2740
CCOC(=O)C1=C[C@@H](C(C)(C)C)N(S(=O)(=O)c2ccc(C)cc2)[C@H]1c1ccc(C#N)cc1,6282

(list continues)
SMILES	Autofluor counter
COC(=O)[C@H]1C[C@@]2(O)CN(S(=O)(=O)c3ccc(C)cc3)C[C@@]2(OC(=O)Nc2cccs2)C[C@H]1C(=O)OC	3778
O=C(CCc1nc2sc3c(c2c(=O)[nH]1)CCCC3)NCCc1ccc(Cl)cc1	2938
O=C(Nc1ccc2c(c1)OCCO2)C(c1ccnc2ccccc12)N1CCC(Cc2ccccc2)CC1 (stereo unspecified)	6179
CCCc1cc(=O)n2[nH]c(C)c(-c3ccccc3OC)c2n1	3723
Cc1ccc(S(=O)(=O)N(C)C[C@@H]2OCc3cnnn3CCCC(=O)N([C@H](C)CO)C[C@H]2C)cc1	3583
CCCCC(=O)N(C)c1c(CC)nc2c(OCc3cccc(Cl)c3)cccn12	3965
CCOC(=O)CNC(=O)N1Cc2cc(-c3ccc(OC)cc3)ccc2-n2nncc2C1	6019
CCCCOCCCNC(=O)C[C@@H]1C[C@@]2(C(=O)OCC)CCCC=C2N(Cc2cccc3ccccc23)C1=O	6771
COc1ccccc1N1CCN(S(=O)(=O)CCNC(=O)C(C)Oc2ccccc2)CC1 (stereo unspecified)	3569
OC[C@H]1O[C@@H](c2nc(-c3nc(-c4ccc(F)cc4)no3)cs2)[C@H](O)[C@@H]1O	3386
CC(C)C[C@H]1CN([C@@H](Cc2ccc(O)cc2)CN2CCC[C@H]2CN2C(=O)C(=O)NC[C@@H]2Cc2ccc(O)cc2)C(=O)C(=O)N1CCc1ccccc1	5012
CCOC(=O)[C@]12CCCC=C1N(Cc1ccc(Cl)cc1Cl)C(=O)[C@H](CC(=O)NCCc1ccccc1OC)C2	5140
CCN1C(=O)[C@H]2[C@@H](c3ccc(C(F)(F)F)cc3)N[C@]3(CCCN(Cc4ccc(OC)cc4)C3=O)[C@H]2C1=O	3606
COCCN1C[C@@H](CO)O[C@@H](n2cnc3c(N4CCCC4)ncnc32)C1	2848
CCN1CCCC1CNC(=O)c1ccc2c(c1)NC(=O)/C(=C\c1ccccc1Cl)S2 (stereo unspecified)	4126
COCCNC(=O)C1(C)CCCN(C(=O)COc2ccccc2)C1 (stereo unspecified)	2875
CCCCN1C(=O)C(CC(=O)NCCN2CCOCC2)CC(C(=O)N2CCCCCC2)=C1C (stereo unspecified)	6255
CCNC(=O)C1CCCN(C(=O)Cc2ccc3ccccc3c2)CC1 (stereo unspecified)	3775
COc1ccc(NC(=O)C[C@H]2C(=O)N(C3CCCCC3)C[C@@H]2c2ccc(OC)cc2)cc1	3076
CCCC[C@@H]1CNC(=O)C(=O)N1CCCCC1CCCCC1	4922
CCCCCC(=O)N1C[C@@H](n2cc(COC(=O)c3ccccc3)nn2)[C@H](O)C[C@@H]1c1ccc(Cl)cc1	3530
Cc1ccc(SC2=C[C@@]3(O)CC[C@@H](O)[C@@](Sc4ccc(C)cc4)(C2=O)[C@H]3O)cc1	4352
CCC(=O)N1CCC1(C)C(=O)Nc1ccc2nc(C)ccc2c1 (stereo unspecified)	3485
C[C@]12C[C@H](O)[C@@H](O)C[C@@H]1CC[C@@H]1[C@@H]2CC[C@]2(C)C(=O)CC[C@@H]12	5388
C=CCN(CC=C)C(=O)C1c2ccccc2Oc2ccccc21	3518

Part of the list above, with each value named:
> CCCCOCCCNC(=O)C[C@@H]1C[C@@]2(C(=O)OCC)CCCC=C2N(Cc2cccc3ccccc23)C1=O
  Autofluor counter: 6771

> COc1ccccc1N1CCN(S(=O)(=O)CCNC(=O)C(C)Oc2ccccc2)CC1 (stereo unspecified)
  Autofluor counter: 3569

New compounds follow:
SMILES	Autofluor counter
CC1(C(=O)O)CCCN1C(=O)c1cc2ccccc2s1 (stereo unspecified)	3487
CC(c1nc2ccccc2[nH]1)N(C(=O)C1=NNC(=O)CC1)c1ccccc1 (stereo unspecified)	5316
CCCC[C@@H]1Cc2[nH][nH]c(=O)c2[C@@H](c2ccc(Cl)cc2)O1	6170
CC1(C(=O)NCc2cccc3ccccc23)CCN1Cc1ccc(-c2ccccc2)o1 (stereo unspecified)	3558
CC1(C(=O)NCc2ccc(C(F)(F)F)cc2)CCN1Cc1ccc(-c2ccccc2)o1 (stereo unspecified)	2967
CC1CCCC(NC(=O)c2cccc(S(=O)(=O)N3CCOCC3)c2)C1C (stereo unspecified)	2939

An excerpt of these results, as comma-separated lines:
molecule,Autofluor counter
CCCC[C@@H]1Cc2[nH][nH]c(=O)c2[C@@H](c2ccc(Cl)cc2)O1,6170
CC(c1nc2ccccc2[nH]1)N(C(=O)C1=NNC(=O)CC1)c1ccccc1 (stereo unspecified),5316
CC1CCCC(NC(=O)c2cccc(S(=O)(=O)N3CCOCC3)c2)C1C (stereo unspecified),2939
CC1(C(=O)NCc2cccc3ccccc23)CCN1Cc1ccc(-c2ccccc2)o1 (stereo unspecified),3558
CC1(C(=O)NCc2ccc(C(F)(F)F)cc2)CCN1Cc1ccc(-c2ccccc2)o1 (stereo unspecified),2967
